From PubChem
YjeE inh: displaces an ADP probe from E. coli YjeE (TsaE); P0AF67; purified YjeE, fluorescence polarisation of a bound ADP probe; Potency, µM; 71,000 compounds, 0.05% hits; AID 605; active = well fitted falling curve; inconclusive = weaker or top-dose-only fall, or a rising curve; inactive = flat or poorly fitted curve;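 note: top concentration of the series not given in the record; excess ADP was the control for the full effect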
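Purified YjeE (10 uM) with BODIPY Texas Red-labeled ADP probe (2 uM); compounds pin-transferred, 15 min at room temperature. Binding inhibition read as decreased fluorescence polarization; ADP titration as control.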
Bst PK mod: modulators of Bacillus stearothermophilus pyruvate kinase; partly purified Bacillus stearothermophilus pyruvate kinase, luminescence ATP production; ribose 5-phosphate activator present at AC10; Potency, µM; 51,000 compounds, 1.2% hits; AID 361; in the data active means potency below about 11 µM; inconclusive means mostly about 12 µM to 25 µM; inactive means weaker than that;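 the screen sought inhibitors and activators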;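 note: potency is the fitted concentration of half-maximal effect; scaled between full activation by ribose 5 phosphate and full inhibition by luteolin; about four in five hits inhibit and the cells do not say which; series up to 57 µM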
* marks the source's active call; other numbers are inactive results; i = inactive; u = inconclusive; x = not tested or not shown. These rows are one share of the data. The share of hits here may be higher or lower than overall.

SMILES	Bst PK mod	YjeE inh
Cc1nc2nc(C)c(CCC(=O)N3CCN(c4ccccn4)CC3)c(C)n2n1	>57	i
CCC(CC)C(=O)N1c2ccc(F)cc2CCC1C (stereo not given)	x	i
COc1cc(OC)cc(C(=O)Nn2cc(C(=O)N3CCN(C)CC3)c3ccccc3c2=O)c1	>57	i
Cc1c(Cl)cccc1N(CC(=O)O)S(C)(=O)=O	x	i
Cc1cc(C(=O)NCc2cccs2)n(-c2ccccc2)n1	x	i
CC(C)(C)c1nnc2sc(SCC(=O)c3cccs3)nn2c1=O	>57	i
O=C(O)CC[C@@]1(c2ccccc2)NC(=O)NC1=O	x	i
O=C(OCCN=C1NS(=O)(=O)c2ccccc21)c1cccnc1	>57	i
CCC(=O)NCCCOc1ccccc1	>57	i
COc1ccccc1NS(=O)(=O)c1ccc(Cl)cc1	>11.4	i
Cc1nc(C(C)(C)O)n(-c2ccccc2)n1	>57	i
COc1ccc(Cn2c(N)c(C#N)c3nc4ccccc4nc32)cc1OC	>25.6	x
COc1ccccc1Nc1nc(N)nc(CSc2nccc(C)n2)n1	>57	i
NCC1CCC(C(=O)O)CC1 (stereo not given)	x	i
CCC(C(=O)Nc1cc(C)nn1-c1nc(C)cc(C)n1)c1ccccc1 (stereo not given)	>57	i

Later entries:
SMILES	Bst PK mod	YjeE inh
Cc1cccc(C2CC(c3ccccc3)Nc3ncnn32)c1 (stereo not given)	x	i
O=C(Cn1nnc(-c2ccccc2NC(=O)C2CC2)n1)NC1CCCCC1	>57	i
CC(=O)C1C(c2cccc(Oc3ccccc3)c2)NC(=O)NC1(O)C(F)(F)F (stereo not given)	>57	i
Nc1c(C(=O)N2CCCCC2)sc(=S)n1-c1ccccc1	>57	i
O=C(Nc1cccc(F)c1)NC1CC2CCCC(C1)N2C1CC1 (stereo not given)	>57	i
Nc1nc2ccc(OC(F)(F)F)cc2s1	i	i
COc1ccccc1N1CCN(C[C@@H](O)COc2cccc3ccccc23)CC1	x	i
Cc1cc2n(c1)CCn1c(C)ccc1-2	x	i
C=CCc1cccc2cc(C(=O)NC)c(=O)oc12	>57	i
CCC1CCCCN1C(=O)C1CC(c2cc(Cl)c(OC)cc2OC)=NO1 (stereo not given)	>57	i
O=S(=O)(c1ccccc1C(F)(F)F)N1CCOCC1	>57	i
Cc1ccc(O)c(NC(=O)COc2cc(C)ccc2C)c1	>57	i
CCOC(=O)c1cc2sc(C)cc2n1CC(=O)N1CCOCC1	>57	i
CCc1ccc(NC(=O)c2cnc3scc(C)n3c2=O)cc1	x	i
CCCCN(C)CCCNC(=O)Cn1c(=O)sc2ccccc21	>57	i

Additional records:
SMILES	Bst PK mod	YjeE inh
O=C(c1cccn2c(=O)c3ccc(Cl)cc3nc12)N1CCN(Cc2ccc3c(c2)OCO3)CC1	>57	i
Cc1csc2ncc(C(=O)NC(C)c3ccccc3)c(=O)n12 (stereo not given)	x	i
COc1cccc(-n2nnnc2SCC(=O)Nc2cccc(C)n2)c1	x	i
Cn1c(=O)c2c(nc(NCc3ccc4c(c3)OCO4)n2Cc2ccccc2Cl)n(C)c1=O	>25.6	x
C=CCNc1nc(-c2sc(NC(C)=O)nc2C)cs1	x	i
CN(CC(=O)Nc1ccc(F)c(F)c1F)c1cnccn1	>57	i
Cc1cccc(OCCn2c(NC(=O)c3ccco3)nc3ccccc32)c1	>57	i
O=C(C1CC1)N1CCc2cc(Br)cc(S(=O)(=O)NCCCN3CCCC3)c21	>57	i
CCN1CCN(CCC(=O)Nc2ccccc2OC)CC1	>57	u
Cc1nn(-c2ccccc2)c2[nH]c(=O)c(CNc3ccc(N4CCOCC4)cc3)cc12	>57	i
CCOc1ccc(N2C(=O)CC(Sc3nccc(C)n3)C2=O)cc1 (stereo not given)	u	i
O=C(Nc1nc(-c2nc3ccccc3s2)cs1)c1ccco1	x	i
COc1ccccc1NC(=O)C1=C(C)NC(=O)NC1c1ccccc1F (stereo not given)	x	i
NC(=O)C1CCN(C(=O)CSc2ccccn2)CC1	>57	i
COc1ccc(OC)c(S(=O)(=O)N(C)CC(=O)O)c1	>57	i

Other compounds follow:
SMILES	Bst PK mod	YjeE inh
Cc1ccccc1Cn1ccc(NC(=O)CCSc2nc(-c3ccco3)cc(C(F)(F)F)n2)n1	>57	i
COCCN1Cc2c(sc(C)c2C)N(C(=O)c2ccccc2)C1	x	i
CCOc1ccccc1NC(=O)c1cccc2c1C(=O)N(CCOC)C2	x	i
COC(=O)C(NC(=O)c1ccccc1)(Nc1nc(C)cs1)C(F)(F)F (stereo not given)	>25.6	x
CCn1c(SCC(=O)N2CCOCC2)nc(O)cc1=O	x	i
C=CCn1c(SCC(=O)NC2CCCCC2)nnc1-c1sc(N)nc1C	>57	i
CN(C)c1ncc2ncc(=O)n(Cc3ccc(F)cc3)c2n1	x	i
O=C(Cn1c(=O)n(Cc2ccco2)c(=O)c2cc(Cl)ccc21)NCC1CCCO1 (stereo not given)	>57	i
O=C(Nc1ccc(-c2nc3ccccc3o2)c(O)c1)c1cc(-n2cnnc2)ccc1Cl	x	i
CC(C)(C#N)C(C)(C)c1nn[nH]n1	>25.6	x
COc1cc(-c2nc(-c3ccc(C)nc3OC)no2)cc(OC)c1OC	>57	i
N#CC1=C(N)Oc2cc(N)ccc2C1C1CCCCC1 (stereo not given)	>57	i
CCCCC(=O)Nc1cc(C)c2c(=O)oc3ccccc3c2n1	>57	i
CC1(C)CC(=O)C(C=NC(CCC(N)=O)C(=O)O)=C(O)C1 (stereo not given)	>57	i
Cc1ccc(NCc2nnc(SCC(=O)NCc3ccco3)n2CC2CCCO2)c(C)c1 (stereo not given)	>57	i

Record cards, as listed above. Order of screens: Bst PK mod	YjeE inh
`O=C(Cn1c(=O)n(Cc2ccco2)c(=O)c2cc(Cl)ccc21)NCC1CCCO1` (stereo not given) is entered as >57	i
`COCCN1Cc2c(sc(C)c2C)N(C(=O)c2ccccc2)C1` is entered as x	i
`C=CCn1c(SCC(=O)NC2CCCCC2)nnc1-c1sc(N)nc1C` is entered as >57	i
`CC1(C)CC(=O)C(C=NC(CCC(N)=O)C(=O)O)=C(O)C1` (stereo not given) is entered as >57	i
`O=C(Nc1ccc(-c2nc3ccccc3o2)c(O)c1)c1cc(-n2cnnc2)ccc1Cl` is entered as x	i

The list goes on:
SMILES	Bst PK mod	YjeE inh
O=C(c1ccc(OCC2CCCO2)cc1)N1CCN(c2ccccc2)CC1 (stereo not given)	>57	i
Cc1ccc(C)c(NC(=O)CSc2n[nH]c(-c3ccncc3)n2)c1	>57	i
CCOC(=O)C1C(=O)NC(SCC(N)=O)=C(C#N)C1c1ccccc1OCC (stereo not given)	x	i
C[C@H](Br)C(=O)Nc1ccc(C(=O)O)c(O)c1	x	i
Nc1c(NCCCN2CCOCC2)c2ccccc2oc1=O	>57	i
CCOC(=O)C1CCN(S(=O)(=O)c2cnc[nH]2)CC1	>57	i
Nn1c(SCC(=O)Nc2ccc3c(c2)OCO3)nnc1C1CCCCC1	>57	i
COCCCNC(=O)CS(=O)Cc1nc(-c2ccccc2C)oc1C (stereo not given)	x	i
Cn1c(=O)c2cc(NC(=O)c3ccccc3Cl)c(=O)oc2n(C)c1=O	>57	i
Cn1c(CNc2ccccc2O)nc2ccccc21	x	i
CC(C)COc1ccc(C(=O)OCCN2CCOCC2)cc1	>57	i
CC1CCN(C(=O)Nc2cccc(NC(=O)N3CCC(C)CC3)c2)CC1	>57	i
CC(=O)N1CCN(c2ccc(NC(=O)c3ccc4c(c3)OCCO4)cc2)CC1	>57	i
CCC1(C)Cc2c(sc3nc(NC)n(C)c(=O)c23)CO1 (stereo not given)	>57	i
Cn1c(=O)c2c(-c3ccccc3)n(N3CCOCC3)cc2n(C)c1=O	>57	i

Next section:
SMILES	Bst PK mod	YjeE inh
C=CCn1c(SCC(=O)Nc2ccc3c(c2)OCO3)nnc1-c1ccccc1O	>57	i
O=C(CCn1nnc2ccccc21)N1CCC(O)(c2cccc(F)c2)CC1	>57	i
COc1cccc(-c2n[nH]c(=S)n2Cc2ccco2)c1OC	>57	i
O=C(Cn1c(C(=O)NCc2ccco2)cc2sccc21)c1ccccc1	>57	i
Cc1ccc(S(=O)(=O)N2CCOCC2)cc1C(=O)Nc1ccccn1	>57	i
CSc1nc(N)c(C#N)c(-c2ccc(Cl)cc2)c1C#N	>57	i
Cc1cccc(CNc2cc(-c3ccc(N(C)C)cc3)ncn2)c1	x	i
Cc1cc(C)n2nc(SCC(=O)Nc3ccc(F)cc3)nc2n1	x	i
Cn1c(=O)n(C)c2cc(CNc3ccc(N4CCOCC4)c(C(=O)O)c3)ccc21	>57	i
Cc1c[nH]c(=O)n(CCCN2CCN(c3ccccc3OCC(F)(F)F)CC2)c1=O	x	i
CCN(CC)CCN1C(=O)C(=O)/C(=C(/O)c2c(C)[nH]c(C(=O)OC)c2C)C1c1ccccc1OC (stereo not given)	>57	i
CSc1nnc2c3c4c(sc3c(=O)n(-c3ccccc3)n12)CC(C)(C)OC4	>57	i
COCC(=O)N1CCC2(CC1)CCN(C(=O)Nc1cccc(F)c1)CC2	x	i
O=C(NCc1ccccc1)c1cc(S(=O)(=O)N2CCC3(CC2)OCCO3)ccc1F	>57	i
CC(=O)NC(C)C(c1cccs1)N1CCN(c2ccccc2)CC1 (stereo not given)	>57	i

The list goes on.
SMILES	Bst PK mod	YjeE inh
O=C(c1c(Cl)nc2sccn12)N1CCN(c2cccc(Cl)c2)CC1	>57	i
Cc1ccc(Cn2nnc3c(=O)[nH]c(C4CCN(S(=O)(=O)c5ccc(F)cc5)CC4)nc32)cc1	>57	i
Cn1c(=O)n(CCc2ccccc2)c(=O)c2c1nc1n2CCN1c1ccccc1	>57	i
CCCCCC1CC(CC(C)C(=O)Nc2nncs2)C(=O)O1 (stereo not given)	>57	i
CCOC(=O)c1c(C)[nH]c(C(=O)O)c1C	>57	i
O=C(CC1CC2CCC1C2)NCc1cccs1 (stereo not given)	>57	i
O=C(CSc1nnc(-c2ccco2)c(-c2ccco2)n1)Nc1ccccc1	>25.6	x
O=C(CN1CCC(O)(c2ccccc2F)CC1)NCCc1c[nH]c2ccccc12	>57	i
O=C(Nc1ccc(S(=O)(=O)N2CCCCCC2)cc1)C1CCCO1 (stereo not given)	>57	i
N#Cc1cn(Cc2cccc(Cl)c2)c2ccccc12	>57	i
CCOC(=O)C1=C(C)N=C2SCCC(=O)N2C1c1cc(Br)ccc1OC (stereo not given)	>57	i
Cc1ccc(C(=O)Nc2sc3c(c2C(=O)O)CCCCC3)o1	i	i
O=C(Nc1ccccc1)Nc1ccc(S(=O)(=O)N2CCCCC2)cc1	>57	i
CC(c1nnc(SCC(=O)Nc2ccc3[nH]c(=O)[nH]c3c2)n1Cc1ccccc1)N(C)C (stereo not given)	>57	i
CC(=O)N1CCC2(CCCN(Cc3ccccc3)C2)CC1	x	i

Next part
SMILES	Bst PK mod	YjeE inh
Cc1ccc2oc(=O)c3cc(C(=O)N4CCN(c5ncccn5)CC4)sc3c2c1	x	i
CS(=O)(=O)N1CCCC(C(=O)NCc2ccc(F)cc2)C1 (stereo not given)	>57	i
Cc1cc(N(C)C)c(C#N)c(N2CCCCC2)n1	>57	i
Nc1ccc(C23CC4CC(CC(O)(C4)C2)C3)cc1	9.06*	i
COCCn1c(=O)c(CCc2ccccc2)nc2cnc(Nc3cccc(OC)c3)nc21	x	i
O=C(O)c1ccc(OCC(O)Cn2cnc3ccccc32)cc1 (stereo not given)	>57	i
CCn1c(=O)cc(OCC(=O)Nc2ccc3c(c2)OCCO3)c2ccccc21	>57	i
c1ccc2c(c1)-c1nc3ccccc3cc1[C@H]2N1CCOCC1	x	i
C=CCOc1nc2c(c(=O)n(Cc3ccc(Cl)c(Cl)c3)c(=O)n2C)n1C	>25.6	x
O=C(Nc1cccc(-c2nc3cccnc3s2)c1)c1ccco1	u	i
CC(C)NCc1c(O)c(Br)cc2oc3c(c12)CCCC3	>25.6	x
COC(=O)Nc1nnc(-c2ccncc2)s1	>57	i
CCCNC(=O)c1n[nH]c(=O)c2ccccc12	>57	i
COC(=O)c1[nH]c2ccc(Cl)cc2c1NC(=O)CN1CCc2cc(OC)c(OC)cc2C1	>57	i
CCn1nnnc1SCC(=O)Nc1nnc(C(C)C)s1	>57	i

(next part)
SMILES	Bst PK mod	YjeE inh
Cn1c(CCNC(=O)c2cccs2)nnc1SCC(=O)Nc1nc(-c2ccccc2)cs1	>57	i
COc1ccc(-c2nc3cccc(C)n3c2NCc2ccco2)cc1OC	x	i
N#CC1=C(N)C(C#N)(C#N)[C@H](c2ccsc2)[C@H]2COCC=C12	>57	i
CCOC(=O)CSc1nnc(CNC(=O)c2ccc(S(=O)(=O)N3CCCC3)cc2)n1C	>57	i
COc1cc(C(=O)Nc2ccc3c(c2)OCCO3)c(-n2cnnn2)cc1OC	>57	i
O=C(CSCCO)Nc1cc(C(F)(F)F)ccc1Cl	>57	i
COc1cccc(C2CC(=O)Nc3c2c(=O)n(C)c(=O)n3C)c1OC (stereo not given)	x	i
CCC(C)C(N)C(=O)NC(CCC(=O)OCc1ccccc1)C(N)=O (stereo not given)	>57	i
Cc1ccc(NC(=O)CCC(=O)OCC(F)(F)C(F)F)cc1	x	i
Cc1ccc(C(=O)NCC2CCCO2)o1 (stereo not given)	>57	i
